High-throughput results from PubChem BioAssay.
Vaccinia Venus – vaccinia inhibition (Venus reporter); Vaccinia virus Venus reporter expression, fluorescence; AID 720580; Potency, µM (highest dose often 36.5 µM), without a hit: top-dose activity change, negative = inhibition, usual class: inhibitors; 330,000 compounds, 0.46% hits; active means well fitted inhibition curve with a large enough effect; inconclusive means small, poorly fitted or top-dose-only effect; inactive means no such curve, though single readings can be large or run the other way; tested in A549 cells; further: nearly all actives have a fitted effect of over 30% in size; inactives centre near -10
VACV mCherry inh – vaccinia inhibition (mCherry reporter); AID 720579; Vaccinia virus mCherry reporter infection, fluorescence; about a quarter of the inactives have no number; Potency, µM (top dose mostly 36.5 µM), for the others: top-dose activity change, negative = inhibition, actives largely listed as inhibitors; 310,000 compounds, 0.63% hits; active = well fitted inhibition curve with a large enough effect; inconclusive = small, poorly fitted or top-dose-only effect; inactive = no such curve, though single readings can be large or run the other way; tested in A549 cells; further: nearly all actives have a fitted effect of over 35% in size; inactives centre near -10
An asterisk follows results filed as active; i = inactive; ? = inconclusive; nt = no result given; & = joins results of further samples; [ ] = remark or other dose. On the % scale 0 is the no-effect control and ±100 the full control effect; potency means the concentration at half of the fitted maximal effect. Rows were taken by chance. About 0.82% of those tested had a hit in this group.

mol | Vaccinia Venus | VACV mCherry inh
O=C(Cn1cc(SCc2cccc(F)c2)c2ccccc21)N1CCOCC1 | -5.5% | -14.9%
CCCc1ccc(OCc2ccc(C(=O)Nc3cccc(C)n3)o2)c(OC)c1 | -22.9% | -13.0%
OC(c1ccc(F)cc1)c1nc(-c2ccoc2)cs1 (centres undefined) | -2.0% | 32.0%[activator]
Cc1ccccc1OCCN1C(=O)NC2(CCCc3ccccc32)C1=O (centres undefined) | -23.2% | nt
Nc1ccc(S(N)(=O)=O)cc1N | 13.9% | i
CC1CCN(S(=O)(=O)c2ccc(NC(=O)[C@@H]3CCCC[C@@H]3C(=O)O)cc2)CC1 | -3.7% | -26.2%
CCn1c(N2CCN(C(=O)/C=C/c3ccccc3)CC2)nc2ccccc21 | -17.8% | i
CCN1CCN(C(=O)Cn2ncc3ccsc3c2=O)CC1 | 4.1% | -3.1%
O=C(/C=C/c1cccc([N+](=O)[O-])c1)NCCSCc1cccc(Cl)c1 | -26.1% | -28.7%
COc1c(C)cccc1C(=O)Nc1cc(-c2nn3c(C)nnc3s2)ccc1C | -26.3% | -22.6%
COc1ccccc1S(=O)(=O)Cc1ccc(C(=O)N2CCN(c3cc(Cl)ccc3C)CC2)o1 | -12.0% | -9.0%
COc1cccc(CC(=O)NCC2Cc3cc(Cl)cc(-c4ncccn4)c3O2)c1 (centres undefined) | -23.4% | -6.3%
CCOC(=O)c1ccc(NC(=O)Nc2c(C)nn(C)c2C)cc1 | -3.8% | i
COc1ccccc1NC(=S)NCCc1ccccc1 | -7.5% | -1.1%
O=C(Nc1nc2ccccc2[nH]1)c1ccc(F)c(S(=O)(=O)N2CCOCC2)c1 | -13.3% | -9.9%
COc1cc(O)c(C(=O)O)c(-c2cc(O)c(O)cc2C)c1 | -6.6% | i
CCN1CCN(S(=O)(=O)c2ccc(C(C)(C)C)cc2)CC1 | -6.7% | -13.4%
O=C1CCC(=O)N1OCCCOc1ccc2c(c1)CCC2 | -6.8% | nt
CCOc1ccc(S(=O)(=O)N2CCOCC2)cc1NC(=O)CCN1C(=O)NC2(CCCC2)C1=O | -0.3% | -13.9%
CCOC(=O)C1CCN(C(=O)C2CCC(=O)N(Cc3cccc(C(F)(F)F)c3)C2)CC1 (centres undefined) | -1.3% | -8.2%
CCOc1ccc(NC(=O)N(O)C2(C#N)CCCCC2)cc1 | 4.6% | -11.9%
COc1ccc2c(c1)C(c1ccc(C)o1)=NNC(c1ccccc1)=N2 | -9.0% | i
CNC(=O)C1CC(=O)N(c2ccc(OCC(=O)Nc3ccc(F)cc3)cc2)C1 (centres undefined) | 8.4% | i
CC(C)(C)NNC(=S)Nc1cccc(F)c1 | 2.4% | -24.4%
CCOC(=O)c1nnn(-c2ccccc2C#N)c1C | -12.1% | i

The list goes on.
mol | Vaccinia Venus | VACV mCherry inh
COc1ccccc1CNc1nc2ccccc2c2nc(-c3cccc(C)c3)nn12 | -8.1% | -5.1%
CCOc1ccccc1NS(=O)(=O)c1c(-c2ccc(C)cc2)csc1C(=O)OC | 5.8% | -11.8%
COC(=O)c1cc(NC(=O)c2cc3sccc3n2Cc2ccc(Cl)cc2)cc(C(=O)OC)c1 | -6.6% | 0.6%
N/C(=N/OC(=O)c1cccc([N+](=O)[O-])c1)c1cccc([N+](=O)[O-])c1 | 1.0% | i
O=C1CCN(c2ccccc2)N1 | 5.3% | -8.6%
CCCCc1ccc(NC(=O)CSc2nc(=O)n(CCCN3CCOCC3)c3c2CCC3)cc1 | ? | ?
CC(=O)C1=CCC(c2cccc3ccccc23)N(S(=O)(=O)c2ccc(C)cc2)C1 (centres undefined) | -11.6% | i
Cc1cc(NS(=O)(=O)c2ccc(NS(=O)(=O)c3ccc(CC(C)C)cc3)cc2)nc(C)n1 | -14.8% | i
CN1CCc2nc3sc(C(=O)NC4CC4)c(N)c3cc2C1 | -12.1% | i
Cc1oc(-c2ccccc2NC(=O)C2CCC2)nc1CNC(=O)c1ccccn1 | -0.6% | -4.5%
CCCCOc1ccc(-c2[nH]ncc2C=O)cc1 | 1.5% | i
C=C[C@@H]1c2ccccc2N(S(=O)(=O)c2ccc(C)cc2)[C@H](c2ccc(C(F)(F)F)cc2)C1(C#N)C#N | -14.3%&-5.9% | ?
CCOc1ccc(S(=O)(=O)Nc2cnc3ccccc3c2)cc1 | -4.7% | ?
O=S(=O)(NC1CCSc2ccccc21)c1ccccc1 (centres undefined) | -12.0% | -29.0%
NNC(=O)c1ccc([N+](=O)[O-])c(CS(=O)(=O)c2ccc(Cl)cc2)c1 | -29.8% | ?
COc1cc(C(=O)OCC(=O)Nc2c(F)cccc2F)cc(OC)c1C | 0.3% | -3.1%
COc1ccc(S(=O)(=O)Nc2cccc(-c3ccc(N4CCOCC4)nn3)c2)cc1F | 0.8% | 4.5%
CC(CNCC1CCCO1)COc1ccccc1 (centres undefined) | -2.1% | -1.2%
Cc1ccc(NC(=S)NCc2cccs2)c(C)c1 | -9.5% | -16.5%
C1=C(c2ccccc2)CCN(c2nc3ccccc3n3cnnc23)C1 | -11.4% | -10.4%
COC(=O)c1ccc(NC(=S)NC2CC3CCC2C3)cc1 (centres undefined) | -2.7% | -10.6%
CC(C)Cc1ccc(S(=O)(=O)N2CCN(c3ccccn3)CC2)cc1 | 1.2% | i
CN(C(=O)CNC(=O)OCc1ccccc1)c1ccc(Br)cc1C(=O)c1ccccc1Cl | ? | ?
COc1ccc(CC(=O)NCc2n[nH]c(=S)n2-c2ccc(Br)cc2)cc1 | -6.1% | 8.8%
COc1c(C)cc(C(=O)C2CCCN(S(=O)(=O)N(C)C)C2)cc1C (centres undefined) | -7.1% | -8.3%

The listing continues.
mol | Vaccinia Venus | VACV mCherry inh
COc1ccc(/C=N/NC(=O)Cn2cnc3c2c(=O)n(C)c(=O)n3C)cc1 | -9.6% | i
C/C(CC(=O)NCc1ccccc1)=N\NC(N)=S | ? | ?
CC1CC(=S)Nc2ccccc2N1Cc1ccccc1 (centres undefined) | -20.6% | -28.7%
CC(C)(C)c1ccc(C(=O)c2c[nH]c(C(=O)NCc3ccco3)c2)cc1 | -21.3% | i
CCOc1ccc(NC(=O)c2oc3ccccc3c2NC(=O)Cc2cccs2)cc1 | -6.4% | -5.9%
O=C(N[C@@H]1c2ccccc2C2(CCN(C(=O)c3cc4ccccc4oc3=O)CC2)[C@H]1O)c1cccnc1 | -7.7% | -0.5%
O=C(N/C(=C\c1cccc(Br)c1)C(=O)N1CCOCC1)c1ccco1 | -11.6% | -10.5%
CC1CN(C2=N/C(=C/c3ccc4c(c3)OCO4)C(=O)N2)CC(C)O1 (centres undefined) | -11.0% | -13.7%
COc1cccc(NC(=O)CN(C)C(=O)CNC(=O)c2ccccc2F)c1 | -2.5% | i
COc1ccc(C(=O)C2CCCN(Cc3cnc(N4CCOCC4)s3)C2)c(OC)c1 (centres undefined) | -28.5% | -19.6%
Cc1nc2nc(SCC(=O)NCc3ccccc3)nn2c(C)c1Cc1ccccc1Cl | -11.7% | -3.7%
O=C(O)CCSc1nc2ccccc2n1-c1ccccc1 | -6.3% | -10.2%
CCOC(=O)c1cc2c(=O)n3ccccc3nc2n(C)c1=NC(=O)c1c(-c2ccccc2Cl)noc1C | -10.8% | i
O=C(O)C1C2C=CC(C2)C1C(=O)NCc1ccc(Cl)c(Cl)c1 (centres undefined) | -23.2% | -4.1%
O=C(Nc1ccc(N2CCOCC2)c(Cl)c1)c1ccc(F)cc1 | -18.6% | 6.2%
COc1ccc(NC(=O)CCCN2C(=O)CCn3nc(-c4cn(C)c5ccccc45)cc32)cc1OC | -2.9% | -6.4%
O=C1CN(C(=O)COC(=O)CCC(=O)c2ccc3c(c2)OCCO3)c2ccccc2N1 | -14.2% | -13.2%
CCC1CCCCN1C(=O)c1ccc2c(c1)C(=O)N(c1ccc(C)cc1)C2=O (centres undefined) | -2.9% | -13.6%
CCc1ccc(C(=O)OCC(=O)Nc2c(C)n(C)n(-c3ccccc3)c2=O)cc1 | -12.9% | -13.1%
O=C(NCCc1ccccc1)c1ccc(CSc2nc3cccnc3n2Cc2ccccc2)cc1 | -11.2% | -21.5%
O=C(NCC(=O)N(c1ccccc1)C(C(=O)NC1CCCCC1)c1cccnc1)c1ccco1 (centres undefined) | -3.3% | -12.4%
CCOc1ccc2nc(N3CCCC(C(=O)Nc4ccccc4CC)C3)sc2c1 (centres undefined) | -26.4% | -20.5%
CCN1C(=O)[C@H]2[C@@H](c3ccc(-c4ccc(C(C)=O)cc4)cc3)N3CCCC[C@@]3(C(=O)OC)[C@H]2C1=O | ? | -5.5%
Cc1cc(CN(C)Cc2ccc(OCC(O)CN(C)Cc3ccccc3)cc2)on1 (centres undefined) | -14.8% | -5.4%
CC(C(=O)NCc1ccc(F)cc1)n1ccc2cc(S(=O)(=O)N3CCCC3)ccc21 (centres undefined) | -23.4% | -23.3%

(next part)
mol | Vaccinia Venus | VACV mCherry inh
CCCN(C(=O)Cc1coc2cc(C)c(C)cc12)c1c(N)n(Cc2ccccc2)c(=O)[nH]c1=O | -5.0% | -13.3%
Cc1ccccc1Cn1cc(S(=O)(=O)CC(=O)Nc2nccs2)c2ccccc21 | -22.6% | -28.0%
Cn1c(=O)[nH]c(=O)c2c1nc(SCC(=O)O)n2CCc1ccccc1 | 4.1% | nt
Cc1ccc(NC(=O)CSCC(=O)N(C)CC(=O)Nc2c(C)cccc2C)cc1 | -17.8% | i
Cc1ccc(NC(=O)Cn2nc(C)c3nn(-c4ccc(Cl)cc4)c(C)c3c2=O)cc1C | -18.8% | -22.9%
O=C(Nc1ccccc1Cl)C1CC(=O)N(c2ccccc2)C1 (centres undefined) | -10.3% | i
CCN(CC)C(=O)[C@H]1C[C@H](CC(=O)NCCCOC)C(=O)N2CCc3c([nH]c4cc(-c5ccco5)ccc34)[C@]12C | -11.4% | -6.5%
Cc1nn(-c2cccc(C(F)(F)F)c2)c(Cl)c1/C=N/n1cnnc1 | -25.8% | nt
CCc1ccccc1N(CC(=O)N1CCN(c2ccc(F)cc2)CC1)S(C)(=O)=O | -10.1% | -15.9%
CC(Oc1ccccc1)c1ccnc(N)n1 (centres undefined) | 3.4% | 11.1%
O=C(COC(=O)c1ccccn1)Nc1ccccc1OC(F)F | -8.3% | ?
Cc1ccc(C(C)(C)C)cc1S(=O)(=O)Nc1cccc(S(=O)(=O)NC2=NCCC2)c1 | -8.7% | -11.7%
O=C(Nc1ccccc1C(=O)O)c1cccc(F)c1 | -4.9% | -14.6%
C=CCN(c1ccccc1)S(=O)(=O)c1cccc(C(=O)N2CCN(c3ncccn3)CC2)c1 | -11.6% | -9.1%
COc1ccccc1NC(=O)c1ccc(NC(=O)CN(C)Cc2ccccc2F)cc1 | -23.7% | i
CCN(C(=O)COC(=O)COc1ccc2c(C)cc(=O)oc2c1)C1CCS(=O)(=O)C1 (centres undefined) | -8.1% | -1.3%
CC(C)CC(NS(=O)(=O)c1cccc(C(=O)O)c1)C(=O)O (centres undefined) | -5.8% | i
Cc1ccc(NC(=O)CN2C(=O)NC3(CCCCC3C)C2=O)cc1S(=O)(=O)N1CCCCC1 (centres undefined) | -28.3% | -12.4%
CC1CCN(C(=S)Nc2ccc(F)cc2)CC1 | -14.7% | -14.9%
COc1cc(/C=N/NC(=O)C(N)=O)ccc1OC(=O)c1cccs1 | -5.0% | i
CN(CCc1ccccn1)C(=O)CCC1CCCN(C(=O)NC2CCCCC2)C1 (centres undefined) | -5.9% | i
O=C(COc1ccccc1Cl)NCCNC(=O)c1cnccn1 | -14.2% | -13.0%
COc1ccc(N2C(=O)C(Cl)=C(NCc3ccccc3)C2=O)cc1 | -10.4% | -15.9%
COc1ccc(-c2[nH]c(-c3ccccc3)nc2SCC(=O)Nc2ccc3c(c2)OCO3)cc1 | -6.0% | -5.2%
CCOC(=O)Cn1c(CN(Cc2ccccc2)Cc2ccccc2)nc2c1c(=O)[nH]c(=O)n2C | -8.9% | -14.9%

One compound at a time (already shown). Order of values: Vaccinia Venus | VACV mCherry inh
CC1CCN(C(=S)Nc2ccc(F)cc2)CC1 reads -14.7% | -14.9%
Cc1nn(-c2cccc(C(F)(F)F)c2)c(Cl)c1/C=N/n1cnnc1 reads -25.8% | nt

(continued)
mol | Vaccinia Venus | VACV mCherry inh
Cc1cccc(NC(=O)c2nc[nH]c2C(=O)N2CCC(C)CC2)c1 | -13.4% | i
Cc1cc(Cl)c2oc(C(=O)N(C)CCc3cnn(C)c3)c(C)c2c1 | -12.7% | i
CCCCNC(=O)C1(C)CCN1C(=O)c1cc(OC)ccc1Br (centres undefined) | -7.3% | 31.3%[activator]
CC(=O)Nc1nonc1-c1nnc(SCC(=O)N(C)c2ccccc2)n1C | -6.6% | -0.5%
NCCSSCCN | -7.3%&-11.5% | -12.9%&-8.6%
COc1ccc(/C=C/C(=O)N(Cc2cccs2)C2CCS(=O)(=O)C2)cc1 (centres undefined) | -7.8% | -19.7%
CCOC(=O)C1CCCN(C(=O)c2ccc(OC)c(OC)c2)CC1 (centres undefined) | 1.1% | 1.3%
CCCCC1(C(=O)OCC)NC(c2ccc(O)cc2)C2C(=O)N(c3ccccc3)C(=O)C21 (centres undefined) | -10.7% | i
